Bioassay records: PubChem BioAssay, National Center for Advancing Translational Sciences (NCATS)
VDR inhibitor: Inhibitors of the vitamin D receptor (VDR): qHTS. Vitamin D3 receptor (Homo sapiens), P11473. VDR-SRC2-3 peptide fluorescence polarization, 2 h. Potency, µM, for inactives: max response, negative = inhibition, actives largely listed as inhibitors. 0.93% of 400,000 active. AID 504847, 2011; active = well fitted inhibition curve with a large enough effect; inconclusive = small, poorly fitted or top-dose-only effect, or another doubt; inactive = no such curve, though single readings can be large or run the other way; also: series mostly up to about 120 µM
Target sequence (P11473 whole entry, looked up): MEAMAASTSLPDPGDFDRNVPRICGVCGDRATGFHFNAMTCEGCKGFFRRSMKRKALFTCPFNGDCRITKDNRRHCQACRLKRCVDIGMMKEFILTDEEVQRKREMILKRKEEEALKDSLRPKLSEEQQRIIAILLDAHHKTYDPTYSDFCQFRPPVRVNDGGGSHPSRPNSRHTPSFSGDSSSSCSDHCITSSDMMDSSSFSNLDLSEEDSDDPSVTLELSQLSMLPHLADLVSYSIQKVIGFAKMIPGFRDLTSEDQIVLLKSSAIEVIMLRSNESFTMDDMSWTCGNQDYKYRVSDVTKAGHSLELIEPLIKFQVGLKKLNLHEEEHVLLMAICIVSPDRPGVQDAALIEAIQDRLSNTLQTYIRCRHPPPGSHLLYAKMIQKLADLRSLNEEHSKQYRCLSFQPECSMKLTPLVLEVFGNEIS
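Reagent solutions, kept cold and dark, are dispensed first; compounds are then pinned in at 23 nl, plates briefly spun, and incubated 2 h at ambient temperature. Inhibition of VDR–SRC2-3 peptide binding is read by fluorescence polarization.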
The depositor's hits bear a star; u = inconclusive; & = joins results of further samples. % is scaled to controls: 0 for no effect and ±100 for the full control effect; potency is read from the fitted curve at half-maximal effect. The list is partial; the hit share may differ from the screen's.

SMILES | VDR inhibitor
Cc1ccccc1-n1cc(CNC(=O)CC2C(=O)NCCN2C/C=C/c2ccccc2)cn1 (stereo not given) | -22%
CN(c1ccccc1)S(=O)(=O)c1ccc2[nH]c(=O)oc2c1 | -12%
COc1ccc(CCC(=O)NCCc2csc(-c3ccc(C(F)(F)F)cc3)n2)cc1 | -3%
CCOC(=O)N1CCN(c2nc(-c3ccc(OC)cc3)no2)CC1 | -7%
c1ccc2c(CSc3nnc(-c4ccncc4)o3)cccc2c1 | -7%
CC(=O)NC12CC3CC(C1)CC(C(=O)N1CCN(S(=O)(=O)c4cccs4)CC1)(C3)C2 | -11%
COc1ccc(S(=O)(=O)N(C)C[C@@H]2Oc3ccc(NC(=O)Nc4c(C)noc4C)cc3C(=O)N([C@H](C)CO)C[C@@H]2C)cc1 | -7%
Cc1ccc(C(=O)OCc2cc(=O)n3nc(CC(C)C)sc3n2)cc1 | -6%
COc1ccc(C(=O)N/C(=C\c2cn(C)c3ccccc23)C(=O)NCCN2CCOCC2)cc1OC | -14%
C=CCCC(=O)Nc1ccc(COC(=O)N2CCOCC2)cc1 | 3%
COc1ccc(C(=O)COC(=O)c2ccc(N(C)C)cc2)cc1 | 13%
CCOC(=O)CC(=O)N/N=C/c1c(N)n(C)c(=O)n(C)c1=O | 7%
COc1ccccc1NC(=O)CSc1nc2c(oc3ccccc32)c(=O)n1Cc1ccco1 | -16%
Cc1ccc(S(=O)(=O)CCC(=O)OCC(=O)Nc2ncc(Cl)cc2Cl)cc1 | -11%
CCCC(C(=O)NC(C)(C)C)N(Cc1ccc(F)cc1)C(=O)c1snc(C(N)=O)c1N (stereo not given) | -8%
O=C(NC(=S)NC1CCCC1)c1ccccc1 | -7%
COc1ccc(N2CCN(Cc3ccc(Br)s3)CC2)cc1 | -8%
Cc1cc(C)c(C)c(S(=O)(=O)N2C(=S)NC(=O)C2C(C)C)c1C (stereo not given) | -11%
O=C(CSC(=S)N1CCCC1)c1cc(Br)cc(Br)c1O | -20%
O=C(Nc1cccc(F)c1)N1CCC2(CC1)CCN(C(=O)c1cccc(F)c1)CC2 | 1%

2 entries from above, field by field.
> Cc1ccc(S(=O)(=O)CCC(=O)OCC(=O)Nc2ncc(Cl)cc2Cl)cc1
  VDR inhibitor = -11%
> CCCC(C(=O)NC(C)(C)C)N(Cc1ccc(F)cc1)C(=O)c1snc(C(N)=O)c1N (stereo not given)
  VDR inhibitor = -8%

Next section.
SMILES | VDR inhibitor
O=c1[nH]c2ccc(S(=O)(=O)N3CCN(Cc4ccccc4)CC3)cc2[nH]c1=O | 12%
COC(=O)N/N=C/c1cccc(OCCSc2ccc(Cl)cc2)c1 | -10%
Cc1cc(N2CCCCC2)nc2ccc(NC(=O)/C=C/c3ccccc3Cl)cc12 | -9%
CCOC(=O)c1sc(=S)[nH]c1C | -15%
O=C(CNS(=O)(=O)c1ccccc1)NCc1ccco1 | 3%
O=c1[nH]c2cccnc2c2ccsc12 | -3%
O=C(COc1nsnc1N1CCOCC1)Nc1ccc(Br)cc1 | -4%
CCOC(=O)C1=C(COC(=O)c2cccnc2SC)NC(=O)NC1C (stereo not given) | 4%
CC(C)(Oc1ccc(Cl)cc1)C(=O)NC1CCSC1=O (stereo not given) | -8%
CC(=O)Nc1ccc(CN2CCC(n3nccc3NC(=O)CCc3ccccc3)CC2)cc1 | -18%
CCOC(=O)COc1nc(-c2ccc(C)cc2)cc(-c2ccco2)c1C#N | -1%
COc1cc(NC(=O)CCc2c(C)nn(-c3ccc4nnc(C)n4n3)c2C)cc(OC)c1OC | -2%
Cc1cccc(N2C(=O)CC(N3CCN(Cc4ccc5c(c4)OCO5)CC3)C2=O)c1 (stereo not given) | -13%
COC(CNC(=O)c1cc(C(=O)c2c(-c3c(Cl)cccc3Cl)noc2C)c[nH]1)OC | 5%
CCn1c(CNc2ccc(OC)cc2)nnc1SCC(=O)Nc1ccc(F)cc1 | -11%
CC(=O)c1c(C)[nH]c(C(=O)OCc2ccccc2)c1C | 20%
CCn1nc(NC(=O)C(C)(C)C)c2cc3cccc(C)c3nc21 | -7%
COc1cc(OC)cc(C(=O)NNC(=O)c2nn(C)c(=O)c3ccccc23)c1 | -10%
CCOC(=O)c1nn(-c2ccccc2)c(C(=O)OCC)c1N | 8%
CCN(CCCNC(=O)CSc1cc(=O)n(C)c2cc(Cl)ccc12)c1ccccc1 | -9%
O=Cc1c(NCc2ccccc2Cl)c2ccccc2[nH]c1=O | -8%
Cc1ccc2c(c1)c(C)cc[n+]2Cc1ccccc1 | 8%
CC1C(=O)N2CCCc3cc(NC(=O)c4ccccc4F)cc1c32 (stereo not given) | -7%
Cc1ccc2nc(-c3ccccc3)c(CN3CCOCC3)n2c1 | -22%
O=C(Nc1ccc(OC(F)F)cc1)c1ncc(Cl)c(Cl)c1Cl | -12%
CCN(CC(=O)Nc1cccc(OC)c1)C(=O)c1cnc(Cl)c(Cl)c1 | -24%
COc1ccc(OC)c(-c2cc(C3CCN(C(=O)OC(C)(C)C)CC3)[nH]n2)c1 | 7%
N#CC1=C(N)N2C(=C(C#N)C13CCCC3)Nc1ccccc12 | 9%
O=C(NNC(=O)C1CCCC1)c1ccccc1F | 6%
CCCCOc1ccc(C(=O)Nc2cc(-c3cn4cccnc4n3)ccc2OC)cc1 | -5%
O=C(N/N=C/c1c[nH]c2ccccc12)c1[nH]c2ccc(Br)cc2c1-c1ccccc1 | -16%
Cc1ccc(NC(=O)CN(C)C(=O)c2cc(-c3ccccc3)nn2-c2ccccc2)cc1 | -24%
CCOc1ccc2nc(N3CCCC(C(=O)Nc4ccc(OC)c(Cl)c4)C3)sc2c1 (stereo not given) | -20%
O=C(c1ccc(Cl)cc1)N1CCN(c2cc(=O)[nH]nc2-c2ccccc2)CC1 | 10%
COC(=O)C(C)n1cnc2c(nnn2-c2ccc(F)cc2)c1=O (stereo not given) | -18%
COCc1cc(=O)[nH]c(SCC(=O)N2CCOCC2)n1 | -1%
COc1cccc(CNC(=O)Cn2ncn3nc(-c4cccs4)cc3c2=O)c1 | 14%
CC(C)[C@H](NC(=O)N1c2ccccc2NC(=O)[C@@H]1C(C)C)C(=O)N[C@@H](Cc1ccccc1)C(=O)O | 4%
COc1ccc(/C=N/NC(=O)c2ccccc2O)cc1Cn1nnc2ccccc21 | -8%
CCN(C(=O)CSc1nc(C)nc2sc(C)c(C)c12)c1ccc(F)cc1 | -9%
O=C(C1CCOCC1)N1CCC(CO)(CCc2ccccc2)CC1 | -11%
CC[C@@H]1OC(=O)[C@H](C)[C@H](O[C@@H]2C[C@](C)(OC)[C@H](O)[C@H](C)O2)[C@H](C)[C@H](O[C@@H]2O[C@@H](C)C[C@@H](N(C)C)[C@@H]2O)[C@](C)(O)C[C@H](C)C(=NOCOCCOC)[C@H](C)[C@H](O)[C@]1(C)O | -1%
Cc1[nH][nH]c(=O)c1C(c1ccc(O)c(Br)c1)c1c(C)[nH][nH]c1=O | -18%
O=C(c1nc2nc(-c3ccccc3)cc(C(F)(F)F)n2n1)N1CCCCC1 | -6%
CCOc1ccc(Br)cc1S(=O)(=O)Nc1ccc(S(=O)(=O)Nc2cc(C)on2)cc1 | 18%
Oc1ccc(Cl)cc1Sc1cc(Cl)ccc1O | 3%&-8%
Cc1ccc(C)c(SCC(=O)OCC(=O)Nc2ncc(C(F)(F)F)cc2Cl)c1 | -3%
COc1cc(C(=O)NC2CC(=O)N(c3cccc(F)c3)C2)cc(OC)c1OC (stereo not given) | 7%
CC1C(=O)OC(c2ccc(Cl)cc2)C(C)(C)C1=O (stereo not given) | -1%
O=C(O)c1cc(S(=O)(=O)Nc2ccc3c(c2)OCCO3)c(Cl)cc1Cl | 7%

Carrying on:
SMILES | VDR inhibitor
O=C(Cn1ncc2c([nH]c3ccccc32)c1=O)NCc1cccc(Cl)c1 | 7%
O=C(N/N=C/c1ccccc1C(=O)O)c1cccc(S(=O)(=O)N2CCOCC2)c1 | 11%
CCOC(=O)c1ccc(NC(=O)CN2c3ccccc3S(=O)(=O)c3ccccc32)cc1 | 12%
Cc1ccc(C(=O)N=c2sccn2C)cc1C | -13%
C[C@H](CO)N1C[C@H](C)[C@@H](CN(C)C)Oc2c(NS(=O)(=O)c3ccc(F)cc3)cccc2C1=O | 13%
Brc1ccc(C2Nc3cccc4cccc(c34)N2)s1 | -26%
Cc1nnc(SCC(=O)NC(=O)NCc2ccco2)n1Cc1ccccc1 | -11%
Cc1ncoc1C(=O)N1CCCC(C(=O)c2ccc(Oc3ccccc3)cc2)C1 (stereo not given) | u
COC(=O)Nc1ccc(S(=O)(=O)N2CCN(c3ccc(F)cc3)CC2)cc1 | -4%
Cc1ccnc(NC(=O)c2cccc(S(=O)(=O)N3CCCc4ccccc43)c2)c1 | 6%
O=C(CN1CCOCC1)Nc1nc2ccc([N+](=O)[O-])cc2s1 | 0%
COc1ccccc1C1CC(c2ccc(Br)cc2)=NN1C(=O)c1cccnc1 (stereo not given) | -4%
CN1CCN(c2ncc3c(n2)CCN(Cc2cc(Br)cs2)C3)CC1 | 12%
CCOc1ccc(C(C(=O)NCC2CCCO2)N(C(=O)c2snc(C(N)=O)c2N)c2ccccc2F)cc1 (stereo not given) | 25%
Cc1ccc(C2CCN(C(=S)NC3CCCCC3)C2)cc1 (stereo not given) | -6%
Cn1c(CCc2nc3ccccc3[nH]2)n[nH]c1=S | -19%
Cc1ccc(-n2cnc3cc(NCc4cccs4)ccc32)cc1 | -7%
COc1ccc(C(=O)CSc2nnc(CNc3nc(-c4ccccc4)cs3)n2C)cc1 | 6%
Cc1ccccc1C(=O)N1N=C(c2ccc(NS(C)(=O)=O)cc2)CC1c1cccs1 (stereo not given) | 10%
Cc1ccc(/C=C/C(=O)NCC2COc3ccccc3O2)o1 (stereo not given) | u
Cc1cccc(-n2ncc3c(NCCCO)ncnc32)c1 | 13%
Cc1ccc(NC(=O)CSc2nc(O)c(Cc3ccccc3)c(=O)n2-c2ccccc2)cc1 | -1%
COCC1CCN(C(=O)c2cc(COc3ccc4c(c3)CCCC4)on2)C1 (stereo not given) | -13%
Cc1cccc(N(Cc2cc3ccccc3[nH]c2=O)S(=O)(=O)c2ccccc2)c1 | -6%
O=C(NCC(c1cccs1)N1CCOCC1)c1ccccc1NS(=O)(=O)c1cccc([N+](=O)[O-])c1 (stereo not given) | -13%
N#Cc1cccc(NC(=O)CCNC(=O)c2ccccc2Cl)c1 | -8%
Cc1ccc(C(=O)N2[C@@H]3CN(C)C(=O)[C@@]2(Cc2ccccc2)[C@H]2C(=O)N(Cc4ccccc4)C(=O)[C@@H]32)cc1 | -5%
c1cncc(-c2ccc3ncnc(NC4CCNCC4)c3c2)c1 | -15%
COCCN(C(=O)COC(=O)/C=C/c1ccc(OC)c(OC)c1)c1c(N)n(Cc2ccccc2)c(=O)[nH]c1=O | -23%
COc1ccc(Cl)cc1Nc1nc(C)cc(=O)[nH]1 | 3%
CN(C)CC/C=C1/c2ccccc2COc2ccccc21 | 10%
O=C(NCCC1=CCCCC1)C(=O)NCCc1ccc(Cl)cc1 | 3%
O=C(c1ccc(C#Cc2ccccc2)o1)N1CCN(c2ccccn2)CC1 | 18%
COC(=O)C1=CN(CCCN2CCCC2=O)C=C(C(=O)OC)C1c1cccs1 | 7%
Cc1oc2ccccc2c1CC(=O)NCCCN(C)C | -8%
O=C(OCCOc1ccccc1Cl)c1ccc(-n2cnnn2)cc1 | -13%
CCOC(=O)c1cnc2c(ccc3ccccc32)c1Nc1ccc(OC)cc1OC | -5%
c1ccc2c(c1)C(=NCC1CCCO1)NC2=NCC1CCCO1 (stereo not given) | -4%
Cc1ccc(CNS(=O)(=O)NCc2ccccc2)cc1 | 20%
CC(C)(C)C1CCC(C(=O)Nc2ccccc2N2CCOCC2)CC1 (stereo not given) | -6%
COc1ccc(CCCC(=O)NCCc2ccccc2)cc1 | 0%
CN(C)c1nc2c(Br)c(Br)c(Br)c(Br)c2[nH]1 | 4%
CC(Oc1ccccc1F)C(=O)NNC(=O)c1cccc(S(=O)(=O)N2CCN(C)CC2)c1 (stereo not given) | -3%
COc1ccc(C(=O)OCC(=O)c2ccc[nH]2)cc1 | -15%
O=C1CSC(=S)N1 | -2%

Nothing new here: entries from further up.
SMILES | VDR inhibitor
COCC1CCN(C(=O)c2cc(COc3ccc4c(c3)CCCC4)on2)C1 (stereo not given) | -13%
Cc1cccc(N(Cc2cc3ccccc3[nH]c2=O)S(=O)(=O)c2ccccc2)c1 | -6%
O=C(NCC(c1cccs1)N1CCOCC1)c1ccccc1NS(=O)(=O)c1cccc([N+](=O)[O-])c1 (stereo not given) | -13%
N#Cc1cccc(NC(=O)CCNC(=O)c2ccccc2Cl)c1 | -8%
Cc1ccc(C(=O)N2[C@@H]3CN(C)C(=O)[C@@]2(Cc2ccccc2)[C@H]2C(=O)N(Cc4ccccc4)C(=O)[C@@H]32)cc1 | -5%
c1cncc(-c2ccc3ncnc(NC4CCNCC4)c3c2)c1 | -15%
COCCN(C(=O)COC(=O)/C=C/c1ccc(OC)c(OC)c1)c1c(N)n(Cc2ccccc2)c(=O)[nH]c1=O | -23%
COc1ccc(Cl)cc1Nc1nc(C)cc(=O)[nH]1 | 3%
CN(C)CC/C=C1/c2ccccc2COc2ccccc21 | 10%
O=C(NCCC1=CCCCC1)C(=O)NCCc1ccc(Cl)cc1 | 3%
O=C(c1ccc(C#Cc2ccccc2)o1)N1CCN(c2ccccn2)CC1 | 18%
COC(=O)C1=CN(CCCN2CCCC2=O)C=C(C(=O)OC)C1c1cccs1 | 7%
Cc1oc2ccccc2c1CC(=O)NCCCN(C)C | -8%
O=C(OCCOc1ccccc1Cl)c1ccc(-n2cnnn2)cc1 | -13%
CCOC(=O)c1cnc2c(ccc3ccccc32)c1Nc1ccc(OC)cc1OC | -5%
c1ccc2c(c1)C(=NCC1CCCO1)NC2=NCC1CCCO1 (stereo not given) | -4%
Cc1ccc(CNS(=O)(=O)NCc2ccccc2)cc1 | 20%
CC(C)(C)C1CCC(C(=O)Nc2ccccc2N2CCOCC2)CC1 (stereo not given) | -6%
COc1ccc(CCCC(=O)NCCc2ccccc2)cc1 | 0%
CN(C)c1nc2c(Br)c(Br)c(Br)c(Br)c2[nH]1 | 4%
